Screening results from PubChem BioAssay.
Biofilm kill mix: mixture kills Candida albicans biofilm cells. C. albicans biofilm persisters + clotrimazole, fluorescence viability; primary screen in compound mixtures of four per well. 120,000 tested, 0.02% active. inhibition, % at 7.6 µM;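 active = inhibition above 30.3% in the primary screen of four-compound pools, then above 30% when the compound was retested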;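 also: compounds exposed to preformed 24 h biofilms for 48 h; the number belongs to the whole pool; some results filed as inactive read as strong as hits; inactives centre near 12; 0% = biofilm with clotrimazole alone and 100% = kill control; retested singly at about 60 µM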
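Assay system: C. albicans biofilms / Medium: RPMI/MOPS medium, pH 7.0 / Schedule: biofilm formation 24 h, compound exposure 48 h, 37 °C / Measured by: Alamar Blue fluorescence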
An asterisk follows results filed as active. Only part of the results is shown, so the mix of outcomes need not match the whole.

The first 4 records, to show the layout:
SMILES	Biofilm kill mix
Cc1cc(Cl)c(S(=O)(=O)N2CCN(c3ccccc3)CC2)cc1OCC(N)=O	11
NC(=O)c1ccc(-c2csnn2)cc1	25
COc1cccc(NC2=Nc3cccc4cccc2c34)c1	10
COc1ccc(CNC(=O)c2ccc[nH]2)cc1Cl	17

The listing, repeating the preview:
SMILES	Biofilm kill mix
Cc1cc(Cl)c(S(=O)(=O)N2CCN(c3ccccc3)CC2)cc1OCC(N)=O	11
NC(=O)c1ccc(-c2csnn2)cc1	25
COc1cccc(NC2=Nc3cccc4cccc2c34)c1	10
COc1ccc(CNC(=O)c2ccc[nH]2)cc1Cl	17
O=C(CSc1nc(COc2ccccc2)nc2ccccc12)NC1CCCC1	25
CCOC(=O)NNC(=S)Nc1c(C)n(C)n(-c2ccccc2)c1=O	18
Cc1cc(/C=N/Nc2ccc([N+](=O)[O-])cn2)c(C)n1-c1ccc(C(=O)O)cc1	17
COC(=O)c1cccc(C23CC4(C2)[C@H](CN(C)[C@@H]4c2ccccc2)C3c2ccc(C(F)(F)F)cc2)c1 (stereo partly specified)	2
Cc1ccc(C(=O)CSc2nnc(-c3ccccc3)n2-c2ccccc2)o1	12
C/C(=N\N=C1\NC(=O)C(CC(=O)Nc2ccc(Cl)cc2)S1)c1ccco1 (stereo unspecified)	2
COC(=O)c1cccc(C#CC(NP(=O)(c2ccccc2)c2ccccc2)c2ccccc2)c1 (stereo unspecified)	13
O=C(CSc1nnc(NC(=O)c2ccc3c(c2)OCO3)s1)NCc1ccco1	2
Cc1ccccc1C(=O)NNC(=S)NC(=O)c1ccccc1	14
Cc1[nH]n(-c2ccccc2)c(=O)c1C(=O)c1ccc([N+](=O)[O-])cc1	22
CC(C)c1ccccc1NC(=O)CCc1nc2ccccc2s1	15
COc1cc(OC)cc(-c2nc3ccccc3c(=O)n2OC(=O)c2ccc(Br)cc2)c1	15
C=CCN1C(=O)OC2(CCCCC2)C1(C)O (stereo unspecified)	5
O=C(CSc1nc2ccccc2n1S(=O)(=O)c1cccc([N+](=O)[O-])c1)NCCc1ccccc1	18
CCCCc1ccc(/C=C2\C(=O)ON=C2c2ccccc2)s1	15
O=C(O)c1ccccc1-c1ccccc1C(=O)NCc1cccnc1	19
COc1ccc(/C=N/OCC(=O)N=Nc2c(O)[nH]c3ccc(Br)cc23)cc1	14
c1cnc2c(C3NCCc4c3[nH]c3ccccc43)cccc2c1 (stereo unspecified)	16
CCNC(=O)CC1C(=O)N(CC)C(=S)N1NC(=O)c1ccccc1 (stereo unspecified)	10
Cc1c(Cl)cccc1NC(=O)CCCn1cnc([N+](=O)[O-])n1	12
CC(NC(=O)c1c(Cl)cnn1C)C1CCCO1 (stereo unspecified)	20
O=C(COc1ccccc1)NC1CCSC1=O (stereo unspecified)	14
Nc1ccccc1OCP(=O)(c1ccccc1)c1ccccc1	14
COc1cc(C)nc(-c2csc(C)n2)n1	19
O=C(CSc1nnc(-c2ccncc2)o1)NCc1ccccc1Cl	20
c1ccc(Oc2nc(-c3cccnc3)nc3ccccc23)cc1	13
CC(=O)Nc1ccc(Oc2ccccc2)cc1	20
CCCn1c(SCC(=O)NCc2ccc(Cl)cc2)n[nH]c1=O	9
COc1cc(CC(NC(C)=O)C(=O)NC2CCN(c3c(Cc4ccccc4)c(C)nc4ncnn34)CC2)cc(OC)c1 (stereo unspecified)	26
O=C(CCN1C(=O)C2C3C=CC(C4CC34)C2C1=O)Oc1ccccc1 (stereo unspecified)	12
CCn1c2c(c(=N)c3c1CCC3)CCCC2	26
O=C(CCN1CCc2ccccc2C1)Nc1ccc(F)c(F)c1	5
COc1ccc(/C=N/NC(=O)C2c3ccccc3-c3ccccc32)cc1	4
N/C(=N\OC(=O)c1ccco1)c1cccnc1	-1
O=C(NC(=S)NNC(=O)c1ccccc1F)c1cccnc1	13
Cc1c(NC(=S)NC(=O)CCc2ccccc2)c(=O)n(-c2ccccc2)n1C	10
CC(=O)Nc1ccc(NC(C)=O)c(NC2OCC(O)C(O)C2O)c1 (stereo unspecified)	20
O=C(COC(=O)c1ccccn1)NCc1ccccc1Cl	-3
COc1ccc2nc(NC(=O)CC3Oc4ccccc4NC3=O)sc2c1 (stereo unspecified)	27
O=C(O)CSc1nnc(CNc2ccc(F)cc2)n1-c1ccccc1	13
CCn1ncc(/C=N\NC(=O)COc2cc(C)cc(C)c2)c1C	17
c1ccc(CN2OCC3Cn4c(nc5ccccc54)C32)cc1 (stereo unspecified)	11
Cc1cccc(/C(N)=N/OC(=O)c2ccc3c(c2)OCO3)c1	14
O=C(CN1C(=O)NC(Cc2c[nH]c3ccccc23)C1=O)NC1CC1 (stereo unspecified)	25
Fc1cc(F)c(C2SCCN2C(=S)Nc2cccc(C(F)(F)F)c2)c(F)c1 (stereo unspecified)	17
CC1(C)Oc2nc3ccccc3n2/C1=C\C#N	-7

(listing goes on)
SMILES	Biofilm kill mix
Cc1ccc(/C=C(\C#N)c2nn(-c3ccccc3)c(N)c2C#N)cc1	16
Cc1cccc(CCNC(=O)CCCOc2cc(=O)n(C)c3ccccc23)c1	0
COc1ccc(CNCC(O)COc2ccc(C)cc2[N+](=O)[O-])cc1 (stereo unspecified)	15
COc1ccc2c(CC(=O)NC3CCCc4ccccc43)coc2c1 (stereo unspecified)	14
CC1(CCc2ccccc2)NC(=S)N(c2ccc(Cl)cc2)N1 (stereo unspecified)	11
O=C(COC(=O)c1ccc(F)cc1)Nc1cc(S(=O)(=O)N2CCOCC2)ccc1N1CCCC1	11
CC(=O)NC(CCS(C)(=O)=O)C(=O)Nc1nc(C)cs1 (stereo unspecified)	4
CCOc1cc(CNCc2cccs2)ccc1OCC(=O)NC(C)(C)C	14
O=C(O)c1ccccc1C(=O)c1ccc(Br)s1	12
O=C(CSc1n[nH]c(=O)n1C1CC1)c1ccc(F)cc1	13

An excerpt of these results, in markdown:
| Compound | Biofilm kill mix |
| --- | --- |
| COc1ccc(CNCC(O)COc2ccc(C)cc2[N+](=O)[O-])cc1 (stereo unspecified) | 15 |
| CCOc1cc(CNCc2cccs2)ccc1OCC(=O)NC(C)(C)C | 14 |
| O=C(COC(=O)c1ccc(F)cc1)Nc1cc(S(=O)(=O)N2CCOCC2)ccc1N1CCCC1 | 11 |
| CC1(CCc2ccccc2)NC(=S)N(c2ccc(Cl)cc2)N1 (stereo unspecified) | 11 |
| COc1ccc2c(CC(=O)NC3CCCc4ccccc43)coc2c1 (stereo unspecified) | 14 |
| Cc1cccc(CCNC(=O)CCCOc2cc(=O)n(C)c3ccccc23)c1 | 0 |
| CC(=O)NC(CCS(C)(=O)=O)C(=O)Nc1nc(C)cs1 (stereo unspecified) | 4 |

Remaining list, next part.
SMILES	Biofilm kill mix
COc1ccc(CNC(=O)c2cc3c(=O)[nH]c4ccccc4c3n2C)cc1	8
O=C(N=Nc1c(O)[nH]c2ccccc12)c1ccc(CN2CCOCC2)cc1	8
O=C(NC(=S)Nc1cccc2cccnc12)c1cccs1	27
Brc1ccc2nc(-c3cccs3)c(NCC3CCCO3)n2c1 (stereo unspecified)	16
Cc1nc(CN(C)C(=O)c2cc(COc3c(F)cccc3F)on2)cs1	33
COc1ccc([C@H]2[C@H]3C=CC[C@@H](C)[C@@H]3C(=O)N2Cc2ccccc2)cc1Cl	3
COC(=O)c1ccc(NC(=S)N(Cc2cccnc2)Cc2ccco2)cc1	10
Cc1cc(N2CCOCC2)nc(C(C)C)n1	20
COC(=O)c1cc(NC(=O)c2c(F)c(F)c(F)c(F)c2F)cc(C(=O)OC)c1	14
CN(C)/C=N/C(=S)Nc1ccccc1	16
Nc1c(C(=O)Nc2ccc(S(=O)(=O)N3CCCC3)cc2)sc2nc3ccc(OC(F)(F)F)cc3cc12	26
CSCC[C@H](NC(=O)COc1ccc(Cl)cc1)c1nc2ccccc2[nH]1	-1
CC(C)(C)NC(=O)C12CC3CC(CC(Cl)(C3)C1)C2	12
NC(N)=NCCCc1cn(CC(=O)N2CCNCC2)nn1	8
Cc1ccccc1-c1nnn(C/C(N)=N/O)n1	28
COc1cccc(NC(=O)CCSc2ccc3ccccc3n2)c1	16
O=S(=O)(Nc1nc2c(s1)CCCC2)c1ccc(Br)cc1	-8
COC(=O)C1=C(C)N(CCc2ccc(OC)c(OC)c2)C(=O)/C1=C\c1ccc(O)cc1	13
Cc1ccc2cc(C3CC(c4ccco4)=NN3S(C)(=O)=O)c(Cl)nc2c1 (stereo unspecified)	-5
Cc1ccc(C(=O)COc2nc(C)nc3ccccc23)cc1	2
CCC(=O)N/N=C(\C)CC(=O)Nc1ccc2c(c1)OCCO2	18
O=C(COC(=O)c1cccc(S(=O)(=O)N2CCN(c3ccc(F)cc3)CC2)c1)NCC1CCCO1 (stereo unspecified)	7
O=C(COC(=O)c1cc(-c2cccs2)nn1-c1ccccc1)Nc1ccc(F)c([N+](=O)[O-])c1	2
CC(=O)/C(=N\Nc1ccc(Cl)cc1Cl)Sc1nnc(-c2ccccc2)n1-c1ccccc1	1
N#Cc1sc(NCc2ccccc2)nc1Cl	-2
CC(C)CCNC(=O)COC(=O)/C=C/c1ccc2ccccc2n1	1
COc1ccccc1C(=O)Nc1ccc(-c2nnn(CC(=O)NCc3ccco3)n2)cc1	16
CCC(=O)NC(=S)Nc1cccc(NC(=O)c2ccco2)c1	14
Nc1ccccc1Nc1cc(-c2ccccc2)nn1-c1ccccc1	18
COc1ccc(/C=N/N=C2/NC(=O)C(CC(=O)O)S2)cc1OCc1ccccc1Cl (stereo unspecified)	27
Cc1cc(C)c(C)c(OCCOCCN2CCN(C)CC2)c1	13
O=C(Oc1ccc(OC(=O)C2CCC2)cc1)C1CCC1	8
O=C1c2cccc3cc([N+](=O)[O-])cc(c23)C(=O)N1/N=C/c1ccc(O)cc1O	7
S=C(c1cn(Cc2ccc(Br)cc2)c2ccccc12)N1CCOCC1	5
Cc1cc(C)nc(N2N=C(c3ccccc3)CC2=O)n1	10
Cc1ccccc1NC(=S)N(Cc1cccs1)C1CCCC1	-3
CCOc1cc(NC(=O)c2cccs2)c(OCC)cc1NC(=O)CCC(=O)NCC1CCCO1 (stereo unspecified)	6
COc1ccc(C(=O)Nc2ccccc2C(=O)N/N=C/c2ccccn2)cc1OC	11
N#C/C(=C\c1ccc(/C=C(/C#N)c2nn(CCO)c(N)c2C#N)cc1)c1nn(CCO)c(N)c1C#N	25
CC1(C)CC(=O)C2=C(C1)Nc1ncnn1C2c1cccs1 (stereo unspecified)	6
COc1ccc2cnn(-c3ccc(OC(F)(F)Cl)cc3)c(=O)c2c1OC	23
O=C(CCN1C(=O)/C(=C/c2ccc3c(c2)OCO3)SC1=S)NNC(=O)c1cccnc1	5
CC#CCN1c2ccccc2[C@]23C[C@@H](C(=O)OC)N(C(=O)C4CCC4)C2=NC(C(=O)OC)=C(C(=O)OC)[C@H]13	7
CCOC(=O)NC1(C(F)(F)F)NC(=O)N(c2cccc(C(F)(F)F)c2)C1=O (stereo unspecified)	19
N#CCCN(C1CCCCC1)S(=O)(=O)c1cccc2nsnc12	4
CN(C)CCNC(=O)c1ccc(Sc2ccc(Br)cc2)c([N+](=O)[O-])c1	21
CCCCCCCCNC(CO)(CO)CO	13
CN([C@@H](Cc1ccc(OS(=O)(=O)c2cccc3cnccc23)cc1)C(=O)N1CCN(c2ccccc2)CC1)S(=O)(=O)c1cccc2cnccc12	11
CC1SCC(NC(=O)c2cccc(Cl)c2)CS1 (stereo unspecified)	12
COCCn1c(SCC(=O)Nc2ccc(Cl)cn2)nnc1-c1ccncc1	13

Remaining list, next part
SMILES	Biofilm kill mix
CC(/C=C/c1ccccc1)=N\Nc1ccccc1[N+](=O)[O-]	8
Cc1ccc(C(=O)N/C(=C/c2ccc(Cl)cc2)C(=O)Nc2cccc(C(=O)O)c2)cc1	8
CC1=NC(=O)C(N=Nc2ccccc2C(=O)O)N1c1ccccc1 (stereo unspecified)	18
COc1cc2nc(N3CCN(C(=O)C4CCCO4)CC3)nc(N)c2cc1OC (stereo unspecified)	11
Cc1ccc(C)c(NCc2ccccc2CO)c1	-5
Cc1ccccc1-c1nsc(SCC(=O)Nc2ccc3c(c2)OCO3)n1	2
CC(C)(C)c1nnc(NC(=O)Cc2ccccc2[N+](=O)[O-])s1	6
O=C(Nc1cccnc1)c1ccc(S(=O)(=O)c2ccc(Cl)cc2)cc1	18
CCO[C@H]1OC(C(=O)NC2CC2)=C[C@@H](c2ccc(Br)cc2)[C@@H]1CCCO	20
CCCC(=O)Nc1c(-c2ccccc2)c(=O)c(C)nn1-c1ccc(Cl)cc1	6
CCN(CC)S(=O)(=O)c1cccc(NC(=O)c2cc(-c3cccs3)nn2-c2ccccc2)c1	18
CCc1ccccc1NC(=O)C1c2ccccc2Oc2ccccc21	10
CCCCNC(=O)CN(c1cccc(F)c1)S(C)(=O)=O	14
O=C(NCc1ccc2c(c1)OCO2)C1(S(=O)(=O)c2ccccc2)CC1	7
COc1ccc(C(=O)Nc2cnn(Cc3c(F)cccc3Cl)c2)cc1OC	0
Cc1ccc(-n2nnnc2SCC(=O)Nc2cccnc2Cl)cc1	12
O=C(/C=C/c1cccc([N+](=O)[O-])c1)NC(=S)Nc1ccc(CN2CCOCC2)cc1	5
CCOc1ccc(-n2cc(-c3ccccc3)c3c(N4CCOCC4)ncnc32)cc1	17
CC(C)[C@H](NC(=O)c1ccccc1Cl)C(=O)Nc1nc(-c2ccccn2)cs1	10
COC(=O)c1ccc(NC(=O)CO/N=C2\CCCc3nonc32)cc1	7
COc1cc(/C=C/C(=O)OCC(=O)NC(=O)NC(C)C)ccc1O	5
S=C(NCc1ccco1)N/N=C/c1ccc(Cl)cc1	17
CCc1nc(N2CCCCC2C(=O)O)c2oc3ccccc3c2n1 (stereo unspecified)	19
